GLA inh pH 4.5: inhibitors of human alpha-galactosidase A at pH 4.5. purified enzyme, 4-MU-alpha-Gal fluorescence, pH 4.5. 230,000 tested, under 10 active. activity change, negative = inhibition, % at 105 µM; inconclusive = small, poorly fitted or top-dose-only inhibition, or a rising curve; inactive = flat fitted curve, though single readings scatter; no compound was filed as active;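 further: 0% = full activity with enzyme and -100% = basal without enzyme; dose as in the result columns while the protocol names 77 µM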
miR-21 reporter: raises the signal of a miR-21 reporter. 340,000 tested, under 10 active. Potency, µM (top dose mostly 38.3 µM), for the others: top-dose reporter change, positive = more light. HeLa miR-21 FLuc reporter, luciferase, 48 h. AID 2288; active = well fitted rising curve with a large enough effect; inconclusive = small, poorly fitted or top-dose-only effect; inactive = no such curve, though single readings can be large or run the other way;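 further: % of control where 0% means no effect; miR-21 action dims this reporter so a rising signal means less miR-21 action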
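Using DMEM plus 10% FBS, HeLa miR-21-FLuc cells are incubated with test compounds (final up to about 40uM) for 48 hours; firefly luciferase signal is then imaged following reagent-mediated lysis.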
Rango release inh: prevents RanGTP from dissociating the Rango-importin beta complex; O95149+P62826; Potency, µM (top dose mostly 46.1 µM), for the others: top-dose activity change, negative = inhibition; Biochemical FRET Rango-importin beta, RanGTP-induced dissociation; actives 0.071% (n = 340,000); active means falling FRET ratio curve, often poorly fitted, with flat reads before Ran was added; inconclusive means other falling curves, or compound fluorescence or quenching; inactive means flat or rising ratio curve;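 further: potency means the concentration at half of the fitted maximal effect; % of control where 0% means no effect; nearly all actives have a fitted effect of over 45% in size; -100% = wells without RanGTP and RCC1; the record marks most hits as doubtful in a second field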
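Compounds preincubate 5 min with complex of recombinant Rango and importin beta in PBS with 1 mM DTT. Ran (0.6 uM) loaded with 2 mM GTP plus 0.2 uM RCC1 starts dissociation; FRET is recorded 45 min later.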
Rango complex inh: prevents formation of the Rango-importin beta complex; Q14974; Rango CFP/YFP FRET sensor + importin beta, 45 min; Potency, µM (series often up to 92.2 µM), for inactives: at the highest dose inhibition of complex formation; actives 0.031% (n = 340,000); active = rising FRET ratio curve, often small or poorly fitted; inconclusive = mostly compound fluorescence or quenching in the first reads; inactive = flat curves in all reads;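 further: potency means the concentration at half of the fitted maximal effect; 0% = DMSO wells and 100% = buffer wells lacking importin beta; nearly all actives have a fitted effect of over 15% in size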
Target sequence (Q14974 whole entry, looked up): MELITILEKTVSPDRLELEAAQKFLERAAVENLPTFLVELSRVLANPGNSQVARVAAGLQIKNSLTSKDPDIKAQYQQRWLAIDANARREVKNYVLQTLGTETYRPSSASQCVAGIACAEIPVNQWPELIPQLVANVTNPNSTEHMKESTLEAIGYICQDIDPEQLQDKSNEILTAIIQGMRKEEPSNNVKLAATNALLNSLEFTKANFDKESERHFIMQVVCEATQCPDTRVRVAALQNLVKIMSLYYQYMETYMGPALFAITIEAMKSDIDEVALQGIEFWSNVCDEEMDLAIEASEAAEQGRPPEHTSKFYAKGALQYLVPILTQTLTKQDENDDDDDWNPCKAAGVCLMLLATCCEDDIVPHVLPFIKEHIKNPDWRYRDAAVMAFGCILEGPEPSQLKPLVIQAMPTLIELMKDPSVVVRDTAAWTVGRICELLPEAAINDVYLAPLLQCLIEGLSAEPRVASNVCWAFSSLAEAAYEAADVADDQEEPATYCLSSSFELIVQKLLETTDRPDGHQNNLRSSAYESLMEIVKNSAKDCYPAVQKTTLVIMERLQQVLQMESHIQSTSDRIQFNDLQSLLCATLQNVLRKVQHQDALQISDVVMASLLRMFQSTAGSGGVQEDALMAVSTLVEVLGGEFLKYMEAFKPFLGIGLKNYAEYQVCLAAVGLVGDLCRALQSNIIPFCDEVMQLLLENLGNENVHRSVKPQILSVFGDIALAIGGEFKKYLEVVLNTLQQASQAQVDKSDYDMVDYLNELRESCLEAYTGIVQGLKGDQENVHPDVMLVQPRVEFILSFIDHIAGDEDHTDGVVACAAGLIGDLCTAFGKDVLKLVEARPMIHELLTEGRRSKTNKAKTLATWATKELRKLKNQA
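FRET biosensor Rango (snurportin 1 IBB between N-terminal EYFP and C-terminal Cerulean), 50 nM in PBS/1 mM DTT/0.02% Tween-20/0.1% BSA, preincubated 5 min RT with compound; 0.125 microM importin beta added, 45 min RT, CFP/YFP FRET ratio read.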
Numbers without * were called inactive; u = inconclusive; x = not tested or not shown; & = joins results of further samples; [ ] = remark or other dose. These rows are one share of the data; the hit share may differ from the screen's.

SMILES | GLA inh pH 4.5 | miR-21 reporter | Rango release inh | Rango complex inh
N=c1ccn(Cc2ccc(Cl)cc2)cc1 | 6 | u | 2% | -3.7%
Cn1c(CC(=O)Nc2ccccc2F)nnc1SCC(=O)Nc1ccccc1Br | x | 0% | 13% | 3.6%
O=C1CCCN2N=C(SCC(=O)Nc3ccccc3C(F)(F)F)SC2=N1 | x | -3% | 16% | 3.3%
O=S(=O)(c1ccccc1)N1CN(Cc2ccc(F)cc2)c2nc3ccccc3nc21 | -17 | -13% | 1% | -0.3%
COc1ccccc1NS(=O)(=O)c1cc(C(=O)NCC(c2ccco2)N(C)C)ccc1C (centres undefined) | x | x | 20% | 0.0%
CCOC(=O)c1c(NC(=O)Cn2cnc3sc(C)c(-c4ccccc4)c3c2=O)sc(C)c1C | 6 | -3% | -10% | 0.2%
COc1ccc(-c2nnc(SCc3nnc(-c4ccccc4)o3)n2-c2ccccc2)cc1 | 2 | -7% | 3% | -3.5%
CCOC(=O)CN1C(=O)C(=O)N(Cc2c(F)cccc2Cl)C1=O | x | -1% | 16% | 5.3%
Brc1ccc(-c2nnc3sc(CNC4CCCC4)cn23)cc1 | 5 | -3% | -3% | -1.6%
CC(OC(=O)c1ccc(NS(=O)(=O)c2cccs2)cc1)C(=O)N(C)C1CCCCC1 (centres undefined) | -9 | -2% | -6% | -2.7%
O=C(Nc1ccc(Br)cc1)Nc1cnccn1 | x | -33% | 18% | 0.6%
CCOC(=O)C1=C(COC(=O)CNC(=O)c2ccc(C)cc2)NC(=O)NC1C (centres undefined) | x | 1% | -3% | -0.3%
CCCCNC(=O)c1cn(CC)c2cc(N3CCN(C)CC3)c(F)cc2c1=O | -2 | 5% | 6% | 1.9%
Nc1cc(=O)[nH]c(SCC(=O)Nc2ccccc2-c2ccccc2)n1 | 5 | -1% | -7% | 0.0%
CC1(C)CC(=O)C(C(c2cccnc2)C2C(=O)CC(C)(C)CC2=O)C(=O)C1 | 19 | 0% | -10% | 0.4%
OCC[C@H]1C[C@H](O)[C@@H](O)[C@@]2(Cc3ccccc3CO2)O1 | x | x | -1% | 2.1%
COc1ccc(CNC(=O)C[C@H]2C(=O)N(Cc3ccc(OC)cc3)C[C@@H]2Cc2ccccc2)cc1 | x | 9% | -6% | 1.1%
CC(C)On1c(SC(C)C)nc2ccccc2c1=O | -10 | 0% | -9% | 4.6%
Cn1sc(NC(=O)c2ccc(Cl)cc2)nc1=O | -5 | -23% | 3% | -0.3%
CCc1ccc2[nH]c3nc(SCc4nnc(-c5ccccc5)o4)nnc3c2c1 | 1 | 0% | -4% | -4.9%
CCC(C)NS(=O)(=O)c1ccc(F)c(C(=O)Nc2c(F)cc(F)cc2Br)c1 (centres undefined) | -6[21.1 µM] | 3% | 15% | -1.3%
O=C(c1ccco1)N1CCn2cccc2C1c1ccccc1 (centres undefined) | -1 | -5% | -10% | 0.8%
Cc1cc(C(=O)Nc2ccc(Br)cn2)sc1C | x | x | 3% | u
CCC1(CC)CNC(=O)NC1=O | x | x | -9% | -1.8%
CCC(C)[C@H](N)C(=O)NC[C@H]1CC[C@H](C(=O)N[C@@H](Cc2ccccc2)C(=O)O)CC1 (some centres undefined) | x | -2% | 6% | -2.1%
Cc1ccc(-n2c(C)nnc2SCC(=O)N2CCc3ccccc3C2)cc1C | -30 | -5% | 1% | 1.0%
COc1ccc(-c2csc(NC(=O)c3ccoc3C)n2)cc1 | -5 | -35% | 3% | 1.6%
Cc1ccc(SCCNC(=O)c2ccc(C)c([N+](=O)[O-])c2)cc1 | 3 | -4% | -6% | 0.3%
COc1cc(SC)ccc1C(=O)N1CCCCCC1 | 0 | -4% | -11% | 0.1%
CCCN(CCC)C(=O)/C=C/c1cccc([N+](=O)[O-])c1 | 1 | -3% | 10% | 2.6%
CCOc1cccc(-c2nnc3sc(-c4cccs4)nn23)c1 | -1 | -12% | -11% | 2.0%
COc1ccccc1NS(=O)(=O)c1ccc(/C=C/C(=O)O)cc1 | 0 | 2% | -7% | -0.4%

Whole records, looked up by structure.
CCOC(=O)c1c(NC(=O)Cn2cnc3sc(C)c(-c4ccccc4)c3c2=O)sc(C)c1C as listed: GLA inh pH 4.5 = 6; miR-21 reporter = -3%; Rango release inh = -10%; Rango complex inh = 0.2%
CCCN(CCC)C(=O)/C=C/c1cccc([N+](=O)[O-])c1 as listed: GLA inh pH 4.5 = 1; miR-21 reporter = -3%; Rango release inh = 10%; Rango complex inh = 2.6%
O=C(Nc1ccc(Br)cc1)Nc1cnccn1 as listed: GLA inh pH 4.5 = x; miR-21 reporter = -33%; Rango release inh = 18%; Rango complex inh = 0.6%

The listing continues:
SMILES | GLA inh pH 4.5 | miR-21 reporter | Rango release inh | Rango complex inh
CCCCCCC1CC(=O)NC(=O)N1 (centres undefined) | -6 | -1% | 12% | 1.3%
O=C(c1n[nH]c2ccccc12)N1CCN(c2ccc(F)cc2)CC1 | -18 | -45% | -3% | 1.4%
C[C@H](NC(=O)c1cc2cc(Cl)ccc2n1C)C(=O)N[C@@H](Cc1ccccc1)C(=O)O | x | 1% | 1% | 0.4%
CC(C)Oc1ccc(C(=O)Nc2ccc(N3CCCC3)cc2)cc1 | 2 | -16% | -4% | 0.2%
C=C1CCN([C@@H](Cc2ccccc2)C(=O)NCc2ccc(Cl)cc2)S(=O)(=O)c2ccccc21 | x | x | 5% | -0.3%
Cc1nc(Sc2ccccc2)c(C#N)cc1-c1ccccc1 | -9 | -37% | -4% | -1.9%
O=C(c1nsc(Cl)c1Cl)N1CCCCC1 | 2 | -3% | 5% | 0.9%
C/C(=N\NC(=S)NCCc1ccccc1)c1ccc(C#N)cc1 | 10 | 4% | 12% | 3.8%
COc1ccc(-c2ccc(OC)cc2)cc1 | x | -8% | 18% | 1.6%
CN(CCOc1ccccc1)C(=O)c1ccc(N2CCCC2)c([N+](=O)[O-])c1 | x | -1% | 3% | 1.2%
CC(Oc1ccc(NC(=O)c2ccco2)cc1)C(=O)N1c2ccccc2CC1C (centres undefined) | 2 | 0% | -9% | -1.6%
Cc1cccc(C)c1Nc1nc2ccccc2o1 | 5 | -6% | 7% | -1.6%
O=C(COc1ccc(S(=O)(=O)NCCc2ccccc2)cc1)N1CCCC1 | -7 | -4% | 13% | u
CC(=O)Nc1ccc(S(=O)(=O)N2CCN(S(=O)(=O)c3ccccc3)CC2)cc1 | x | 1% | 12% | -0.9%
Cc1ccc2c(c1)N(CC(=O)N1CCCCC1)C(=O)CO2 | x | 0% | 6% | -1.1%
Cc1onc(C(=O)N2CCN(c3ccccc3)CC2)c1[N+](=O)[O-] | x | 3% | 0% | -0.2%
Cc1ccc(CC(=O)Nc2ccc(C(=O)N3CCOCC3)cc2)cc1 | x | -7% | 4% | 3.3%
Cc1cc(C(=O)N2CCCC(C(=O)c3cccc(C(F)(F)F)c3)C2)n[nH]1 (centres undefined) | x | -5% | 12% | 1.4%
COc1ccc(CC(=O)NNS(=O)(=O)c2ccc([N+](=O)[O-])cc2)cc1OC | x | 1% | 5% | 1.9%
CC(=O)c1c(C)oc2ccc(N(C(C)=O)S(=O)(=O)c3ccc(F)cc3C)cc12 | x | 0% | -5% | 3.1%
O=C(c1ccc2c(c1)OCO2)N1CCN(S(=O)(=O)c2ccc(Cl)cc2)CC1 | x | -8% | 0% | -1.4%
COc1ccccc1CC(=O)Nc1ccc(C(=O)N2CCCCC2)cc1 | x | -23% | 0% | -0.1%
S=C1NC2(CCCCC2)N=C1c1ccccc1 | -6 | -13% | u | -0.1%
CC1CCCN(C(=O)C2CCN(C(=O)Nc3ccccc3)CC2)C1 (centres undefined) | x | x | 22% | 6.2%
CC(C)(C)OC(=O)COc1cc(O)c2c(=O)cc(-c3ccccc3)oc2c1 | -14 | -2% | 8% | 1.0%
CCOc1ccc(N(CC(=O)NCCc2ccc(F)cc2)S(=O)(=O)c2ccccc2)cc1 | x | 2% | -4% | -1.3%
O=S1(=O)c2ccccc2N=NN1Cc1cc(Cl)cc(Cl)c1 | 8 | -8% | x | x
NC(=O)NNc1ncc(C(F)(F)F)cc1Cl | 2 | 0% | 1% | 0.8%
O=C(CSc1nc2c(c(=O)n1-c1ccc(F)cc1)SCC2)N1CCCC1 | 6 | -1% | -15% | 1.3%
O=C(Nc1c2ccccc2nc2ccccc12)C(Cl)(Cl)Cl | u | -6% | u | u
CC1Cc2ccccc2N1C(=O)CSc1nnnn1C (centres undefined) | 2 | -2% | -1% | -0.6%
O=S(=O)(/C=C/c1ccccc1)N1CCc2ccccc2C1 | x | -4% | 3% | -3.1%
CC(C(=O)NCc1ccco1)c1ccc([N+](=O)[O-])cc1 (centres undefined) | 3 | 5% | 5% | 1.7%
Cn1c(=O)cc(SCC(=O)NCc2cccnc2)c2ccccc21 | 0 | -15% | -3% | -1.4%
CCOC(=O)C1CCN(C(=O)/C=C/c2ccc3c(c2)OCO3)CC1 | x | -37% | 2% | -0.8%
CCCC(CCC)=NNC(=O)CN(Cc1ccccc1)S(=O)(=O)c1ccccc1 | -1 | -3% | 1% | -0.2%
CCN(CC)CCNC(=O)c1cn(CC)c2ccc(S(=O)(=O)N(C)C)cc2c1=O | 9 | -3% | -1% | -0.5%
C=CCN(CC=C)CCOc1ccccc1[N+](=O)[O-] | -11 | -8% | -1% | -0.7%
CCc1[nH]nc(C(=O)N2CCCC(Nc3cccc(F)c3)C2)c1C (centres undefined) | x | -19% | 8% | -4.4%
O=C(CCCN1C(=O)/C(=C\c2cccs2)SC1=S)Nc1cccc(C(=O)O)c1 | -10 | 1% | -11% | -2.4%

3 structures out of the list, arranged by count of non-hydrogen atoms, descending.
SMILES | GLA inh pH 4.5 | miR-21 reporter | Rango release inh | Rango complex inh
O=C(CCCN1C(=O)/C(=C\c2cccs2)SC1=S)Nc1cccc(C(=O)O)c1 | -10 | 1% | -11% | -2.4%
CCOC(=O)C1CCN(C(=O)/C=C/c2ccc3c(c2)OCO3)CC1 | x | -37% | 2% | -0.8%
C=CCN(CC=C)CCOc1ccccc1[N+](=O)[O-] | -11 | -8% | -1% | -0.7%

More entries follow:
SMILES | GLA inh pH 4.5 | miR-21 reporter | Rango release inh | Rango complex inh
COc1ccccc1N1CC(C(=O)NCCC2=CCCCC2)CC1=O (centres undefined) | x | x | 37% | -0.7%
COc1cccc(CNC(=O)c2cc3ccccn3n2)c1 | -1 | -24% | 0% | u
Cc1cc(N2CCOCC2)nc(N2CCOCC2)n1 | 5&3 | -3%&-4% | 2% | -2.2%
Cc1cc2c(ncn2C(C)C)c(N)c1C | -1 | -16% | 0% | 0.6%
Cc1ccc(S(=O)(=O)N2CCCC2c2nc3ccccc3s2)cc1 (centres undefined) | 1 | 0% | 7% | 1.7%
Cc1noc(C)c1C(=O)OCC(=O)NCCc1ccc(Cl)cc1 | 5 | 1% | 14% | 2.0%
COCCN(C(=O)COC(=O)/C=C/c1ccc2ccccc2n1)c1c(N)n(Cc2ccccc2)c(=O)[nH]c1=O | x | 10% | -13% | 1.2%
O=C(O)CCC(=O)N1CCc2cc(S(=O)(=O)NCCc3ccc(Cl)cc3)ccc21 | x | -7% | 4% | 0.9%
CC(=O)NS(=O)(=O)c1ccc(N=NN2CCCCC2)cc1 | -1 | -17% | 1% | -0.6%
Cn1nc(C(=O)O)c(=O)n(C)c1=O | x | x | -2% | -5.1%
CCCS(=O)(=O)N1CCc2ccc(NC(=O)C3CCCO3)cc2C1 (centres undefined) | x | -1% | -14% | -1.0%
CCN(C(=O)COC(=O)C1CCN(S(=O)(=O)c2ccc(C)c(C)c2)CC1)C1CCS(=O)(=O)C1 (centres undefined) | x | x | 9% | -0.2%
COc1ccc(C(=O)Nc2ccc(S(=O)(=O)N3CCCCC3)cc2)cc1OC | -9 | -3% | -11% | -0.9%
